# GPT2 inh: inhibitors of human GPT2 alanine aminotransferase | Potency, µM (top dose mostly 57.7 µM), for inactives: at the top dose activity change, negative = inhibition, actives largely listed as inhibitors | 100,000 compounds, 0.25% hits | AID 1671188 | Recombinant GPT2, coupled pyruvate oxidase/HRP Amplex Red fluorescence; note: potency is the fitted concentration of half-maximal effect; nearly all actives have a fitted effect of over 60% in size; many of its hits are not listed in these tables
#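 GPT2 10ng/uL, a-KG 250uM, L-Ala 2mM, HEPES pH7.5 + 0.0001% Tween; 30 min RT. Then Amplex mix (PO/HRP/ThPP), 30 min RT dark, fluorescence. AOA 50uM used as positive control.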
# FLuc inh: blocks purified firefly luciferase enzyme activity. Potency, µM (doses to about 115 µM), without a hit: at the highest dose activity change, negative = inhibition, actives largely listed as inhibitors. purified P. pyralis luciferase, luminescence, biochemical. 76,000 compounds, 2.5% hits. P08659; note: potency is the fitted concentration of half-maximal effect; nearly all actives have a fitted effect of over 65% in size
# Target sequence (P08659 whole entry, looked up): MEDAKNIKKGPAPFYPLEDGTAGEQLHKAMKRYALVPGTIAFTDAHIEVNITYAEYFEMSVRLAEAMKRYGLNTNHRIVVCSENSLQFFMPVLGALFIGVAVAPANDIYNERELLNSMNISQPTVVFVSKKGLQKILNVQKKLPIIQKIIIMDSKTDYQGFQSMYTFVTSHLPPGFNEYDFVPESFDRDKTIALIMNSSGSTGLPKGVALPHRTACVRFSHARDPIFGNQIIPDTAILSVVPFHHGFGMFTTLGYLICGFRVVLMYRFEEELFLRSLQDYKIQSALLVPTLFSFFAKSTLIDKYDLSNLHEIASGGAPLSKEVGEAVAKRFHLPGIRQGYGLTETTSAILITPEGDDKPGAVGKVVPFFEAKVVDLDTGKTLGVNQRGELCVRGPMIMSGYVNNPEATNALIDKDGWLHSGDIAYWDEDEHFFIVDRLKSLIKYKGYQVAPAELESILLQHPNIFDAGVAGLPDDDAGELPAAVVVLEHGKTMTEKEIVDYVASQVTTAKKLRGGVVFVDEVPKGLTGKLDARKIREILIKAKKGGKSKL
#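 Cell-free enzyme assay, 10nM P. pyralis luciferase, luciferin and ATP each at 10uM. Inhibition profiled over a 6-point titration, read as luminescence.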
# IP6K1 inh: inhibitors of human IP6K1; Q92551; AID 1645851; IP6K1 kinase, ADP-Glo luminescence, 2 h; hits give low values; activity change, % (series mostly up to about 58 µM); 140,000 compounds, 0.81% hits; in the data active = activity change below about -25%
#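 ADP-Glo luminescence measures ADP made by human IP6K1 during a 2 h RT reaction with ATP/IP6 (mix at 1.3 mM/130 uM); top library doses 57.5 and 19.1 uM final.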
# SNCA expr inh: SNCA gene expression inhibition; HEK-293 SNCA-luciferase knock-in, luminescence, 24 h; 140,000 compounds, 0.17% hits; Potency, µM (doses to about 57.2 µM), without a hit: at the top dose activity change, negative = inhibition, most hits filed as inhibitors;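 note: potency is the fitted concentration of half-maximal effect; plate controls were DMSO cells for no effect and cell-free wells for full effect; nearly all actives have a fitted effect of over 45% in size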
# * hit, by the source's call; i = inactive; ? = inconclusive; . = no result given; [ ] = dose if it differs, or a comment. Unless noted, calls come from the whole dose curve; as a rule, active = well fitted curve in the direction sought with a large enough effect; inconclusive = small, poorly fitted or top-dose-only effect, or another doubt; inactive = no such curve, though single readings can be large; an effect the other way counts as inactive or inconclusive. Unless noted, % is set by controls: 0 for no effect and ±100 for the full control effect. A portion of the library; rates above refer to the full screens.
SMILES,GPT2 inh,FLuc inh,IP6K1 inh,SNCA expr inh
N#Cc1ccc(-c2ccc(NC(=O)Nc3ccc(-c4ccnc5nc[nH]c45)cc3)cc2)cc1,i,.,43,.
COc1cc2nc(N3CCCC3)nc(NCCCCCN3CCCC3)c2cc1OC,-5%,.,6,.
O=C(Nc1cccc(C(F)(F)F)c1)c1ccccc1NCc1ccncc1,-2%,.,0,.
CN1CCN(C(=O)c2cc(-c3ccc(F)cc3)nc3c2cnn3C)CC1,2%[88.5 µM],.,25,?
Cc1cccc(-c2noc([C@@H]3C[C@@H](O)CN3Cc3ncc[nH]3)n2)c1,i,?,1,120%[activator][87.6 µM]
CCN1CCN(C(=O)c2ccc3nccn3c2)CC1,-14%[88.5 µM],0%[172 µM],2,-3%[87.6 µM]
Cc1ccc(-c2ccc3nnc(CNC(=O)c4ccn[nH]4)n3n2)cc1,i,9%,9,-8%
O=C(O)c1ccc(-c2ncc3cnc(-c4ccccc4)cn23)cc1,-9%[88.5 µM],-6%[172 µM],-1,3%[87.6 µM]

# Filtered by structure, those above containing fluorine.
SMILES,GPT2 inh,FLuc inh,IP6K1 inh,SNCA expr inh
O=C(Nc1cccc(C(F)(F)F)c1)c1ccccc1NCc1ccncc1,-2%,.,0,.
CN1CCN(C(=O)c2cc(-c3ccc(F)cc3)nc3c2cnn3C)CC1,2%[88.5 µM],.,25,?

# Part of the list above, as labelled records.
> Cc1cccc(-c2noc([C@@H]3C[C@@H](O)CN3Cc3ncc[nH]3)n2)c1
  GPT2 inh: i
  FLuc inh: ?
  IP6K1 inh: 1
  SNCA expr inh: 120%[activator][87.6 µM]
> Cc1ccc(-c2ccc3nnc(CNC(=O)c4ccn[nH]4)n3n2)cc1
  GPT2 inh: i
  FLuc inh: 9%
  IP6K1 inh: 9
  SNCA expr inh: -8%

# 2 neighbouring records from above, for reference:
SMILES,GPT2 inh,FLuc inh,IP6K1 inh,SNCA expr inh
Cc1ccc(-c2ccc3nnc(CNC(=O)c4ccn[nH]4)n3n2)cc1,i,9%,9,-8%
O=C(O)c1ccc(-c2ncc3cnc(-c4ccccc4)cn23)cc1,-9%[88.5 µM],-6%[172 µM],-1,3%[87.6 µM]

# From PubChem
